Source: PubChem BioAssay (National Center for Advancing Translational Sciences (NCATS))
HPGD block: qHTS Assay for Inhibitors of HPGD (15-Hydroxyprostaglandin Dehydrogenase). 15-hydroxyprostaglandin dehydrogenase [NAD(+)] (Homo sapiens), P15428. Potency, µM, for the others: at the highest dose activity change, negative = inhibition, most hits filed as inhibitors. hit rate 4.3% among 150,000. purified HPGD, NADH fluorescence kinetic, PGE2 substrate; active = well fitted inhibition curve with a large enough effect (not every such curve was filed as active); inconclusive = small, poorly fitted or top-dose-only effect, or another doubt; inactive = no such curve, though single readings can be large or run the other way;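 also: top concentration of the series not given in the record; plate controls included wells without enzyme; inactives centre near -10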
Target sequence (P15428 whole entry, looked up): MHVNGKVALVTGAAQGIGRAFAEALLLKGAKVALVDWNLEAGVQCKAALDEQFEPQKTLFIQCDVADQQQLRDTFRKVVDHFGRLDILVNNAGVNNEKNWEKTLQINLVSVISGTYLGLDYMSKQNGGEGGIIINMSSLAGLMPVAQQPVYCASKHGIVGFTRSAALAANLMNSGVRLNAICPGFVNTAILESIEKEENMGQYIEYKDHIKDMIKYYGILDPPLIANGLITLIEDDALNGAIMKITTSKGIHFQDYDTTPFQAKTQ
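20 nM HPGD preincubated 15 min at room temperature with compound in 50 mM Tris-HCl pH 8, 0.01% Tween 20. Started with 1 mM NAD+ and 30 uM prostaglandin E2; NADH fluorescence (360/450 nm) read 5 times over 30-s intervals, last minus first.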
Active calls of the source: *; ? = inconclusive; & = joins results of further samples. % is scaled to controls: 0 for no effect and ±100 for the full control effect; potency is read from the fitted curve at half-maximal effect. This is a subset, so the mix of outcomes need not match the whole.

SMILES	HPGD block
COc1ccc(C(=O)Nc2ccccc2C(=O)NC(Cc2ccc(O)cc2)C(=O)NNC(=O)c2ccccc2)cc1 (stereo unspecified)	?
O=C(NCc1ccco1)NC1CCCCC1	-10.1%
Cc1ccc(C(=O)COC(=O)c2ccncc2)cc1[N+](=O)[O-]	-3.9%
N#CC1=C(N)SC(N)=C(C#N)C1Cc1ccccc1	11.2µM*
COc1nc(NCc2ccc(Cl)cc2)nc(OC)n1	-10.3%
CCOC(=O)CSc1ncc(-c2ccccc2)cn1	0.4%
CC1C2CC(CC1(C)C)N(C(=O)Nc1ccc3nccnc3c1)C2 (stereo unspecified)	?
O=C(O/N=C\c1ccc(N2CCCCC2)c([N+](=O)[O-])c1)c1ccc(Cl)cc1Cl	-6.4%
CCOC(=O)CNC(=O)CCCCCC(=O)NCC(=O)OCC	-3.5%
CC(C)C(OC(=O)c1cccs1)C(=O)NCc1ccco1 (stereo unspecified)	-14.0%
CCCSc1nc2c(c(=O)n1CC)SC(C)C2 (stereo unspecified)	-10.8%
O=C(Cc1cn(Cc2cccc(Cl)c2)c2ccccc12)N1CCCCCC1	-12.1%
COc1ccc(C(=O)N2CCC(C(=O)O)CC2)cc1	-2.6%
CCN(CC)C(=O)COc1ccc(-c2nnc(N3CCCCC3)c3ccccc23)cc1	-13.5%
C=CCN(CC=C)S(=O)(=O)c1ccc(NC(=S)NC(=O)c2ccco2)cc1	-14.1%
CSCCC(NC(=O)c1ccc(Cl)cc1)C(=O)NC(C)(C)C (stereo unspecified)	-8.0%
CCOC(=O)CSc1nc2cc3c(cc2cc1CC)OCCO3	?
O=C(Nc1ccc(Cl)c([N+](=O)[O-])c1)C(Sc1ccccc1)c1ccccc1 (stereo unspecified)	-20.6%
CN(C)CCCNC(=O)Cc1ccc(Br)cc1	-4.8%
O=C(CN1CCN(c2ccccc2)CC1)Nc1nnc(-c2ccccc2)s1	-7.7%
CC(C)CCn1c(Sc2nc3ccccc3o2)nc2c1c(=O)[nH]c(=O)n2C	-5.2%
CCNc1nc(N2CCCCC2)nc(-n2nnc(C(=O)OCC)c2C)n1	-10.5%
Cc1ccc(C(=O)/C=C/C(=O)O)cc1	?
N=c1c2c(-c3ccccc3)c(-c3ccccc3)n(Cc3ccccc3)c2ncn1CCO	-14.1%
CCCC(=O)Nc1ncnc2c1ncn2C1OC2COP(=O)(O)OC2C1OC(=O)CCC (stereo unspecified)	-17.9%

More records
SMILES	HPGD block
Cc1cccc(OCC(=O)NCC(=O)N/N=C/c2cccs2)c1	-14.6%
N#Cc1c(N)nc(SCc2ccccn2)c(C#N)c1-c1cccs1	-17.5%
CSc1nc2ccccc2n1Cc1cccc(F)c1	-4.6%
CCC1CCCCN1CCCNC(=O)CC1Oc2ccc(C)cc2NC1=O (stereo unspecified)	-9.3%
COC(=O)Cn1c(CCC(=O)O)ccc1-c1ccccc1	-29.3%
Cc1cccc(NC2SC(=O)N(c3ccccc3)C2=O)c1 (stereo unspecified)	-4.6%
COc1c2ccoc2c(OC[C@@H](O)C(C)(C)O)c2oc(=O)ccc12	-11.3%
CC(=O)Nc1nc2nc(-c3ccccc3)cc(-c3ccccc3)n2n1	?
O=C(NC1CCCC1)C1=COCCO1	?
COC(=O)C1=C(C)NC2=C(C(=O)CC(C)(C)C2)C1c1ccsc1 (stereo unspecified)	?
CCCCCOC(=O)C(C)c1c(C)[nH]c(=S)[nH]c1=O (stereo unspecified)	5.1%
CCOc1ccc2noc3c2c1C(=O)c1ccccc1-3	-11.9%
O=C(CSCc1ccccc1)N/N=C/c1ccc(OCC(=O)N2CCCCC2)cc1	-25.1%
CCOP(=O)(OCC)C(NCc1ccccc1)c1ccc(Br)cc1 (stereo unspecified)	-2.8%
CCOCC(=O)Nc1nc2c(s1)C(=O)CC(C)(C)C2	?
CC(=O)O[C@@]1(C(C)=O)CCC2C3C=C(C)C4=CC(=O)CCC4(C)C3CCC21C (stereo partly specified)	-3.6%
CC1(C)CC(=O)C(C=NCCN2CCN(C(=S)Nc3cccc(Cl)c3)CC2)=C(O)C1	-1.5%
COc1ccccc1OCC(=O)Nc1ccc(O)cc1C(=O)O	-15.7%
CC12CC3(C)CC(C)(C1)CC(C(=O)Nc1nn[nH]n1)(C2)C3	-8.7%
CC(C)NC(=S)N(C)C1(c2ccccc2Cl)CCCCC1=O (stereo unspecified)	1.2%
CCCn1c(SCC(=O)NC2CCCC(C)C2C)n[nH]c1=O (stereo unspecified)	-4.7%
CC1(C)CC(CC(=O)NNc2nc(-c3ccccc3)cs2)C(=O)O1 (stereo unspecified)	-10.7%
COc1ccc2ccccc2c1-c1c(OC)ccc2ccccc12	0.7%&-5.4%
Cc1cc(S(=O)(=O)N2CCCC2)ccc1OCC(=O)N1CCOCC1	1.6%
CCOC(=O)/C(C#N)=C1/C=Nc2ccccc2N1	-13.1%

Additional structures:
SMILES	HPGD block
O=C(O)c1ccoc1CN1CCCCC1	-9.5%
CC(C)n1c(SCc2ccc(Cl)cc2)nc2c1c(=O)[nH]c(=O)n2C	-21.8%
CCOC(=O)C(NC(=O)CCC(=O)Nc1ccc(S(N)(=O)=O)cc1)C(O)c1ccccc1 (stereo unspecified)	-14.5%
COC(=O)COc1ccc2c(-c3ccc(OC)cc3)cc(=O)oc2c1	?
O=[N+]([O-])c1cc2c(cc1/C=N/Nc1nc(Nc3ccccc3)nc(N3CCCCC3)n1)OCO2	-4.1%
C#CCOc1ccccc1CNc1ccccc1	-1.5%
COc1cc(N[C@@H](C)CCCN)c2ncccc2c1	-2.6%
Cc1c(O)c(CN2CCCCC2)cc2c3c(c(=O)oc12)CCC3	?
Cc1nn2c(COc3ccc(NC(=O)c4ccccc4)cc3)nnc2c2ccccc12	-27.3%
N[C@@H](Cc1ccccc1)c1nnc(SCc2ccccc2Cl)o1	28.2µM*
O=C(NNC(=O)c1cccs1)c1ccc(S(=O)(=O)N2CCCCC2)cc1	-15.0%
O=C(OCc1nc2ccccc2c(=O)[nH]1)c1cccs1	-10.3%
Cc1ccc(C(=O)N/C(=C\c2cccc([N+](=O)[O-])c2)C(=O)NCc2ccncc2)cc1	-7.1%
O=C(Cc1cccs1)N(Cc1ccco1)C1(C(=O)NC2CCCCC2)CCCCC1	-13.1%
CCOC(=O)c1c(-c2ccccc2)csc1NC(=O)CSc1nncs1	-11.2%
CCSc1nc2c(c(=O)[nH]1)C(c1cccnc1)C(C(=O)OC)=C(C)N2 (stereo unspecified)	-11.0%
CCCNC(=O)CS(=O)Cc1nc(-c2ccccc2C)oc1C (stereo unspecified)	-5.1%
O=C1c2cc([N+](=O)[O-])ccc2-c2ccc3c4ccc5c6c(ccc(c7ccc1c2c73)c64)C(=O)c1cc([N+](=O)[O-])ccc1-5	-15.3%
O=C(N1CCCCCC1)n1c(Cc2ccccc2)nc2ccccc21	-15.6%
Cn1cnnc1SC1c2cccc3cccc(c23)C1NS(=O)(=O)c1ccc(Cl)cc1 (stereo unspecified)	-1.0%
CCOCCCNc1nc2c([nH]1)c(=O)n(C)c(=O)n2C	-6.3%
O=C(Cn1cc(/C=N/O)c2ccccc21)N1CCOCC1	-7.5%
CCCC(=O)Nc1cccc(NC(=O)c2ccc3c(c2)OCO3)c1	-7.3%
O=C(Cn1cc2c(n1)CCCC2)NCc1ccccn1	-9.8%
COc1ccc(S(=O)(=O)Nc2cccc(NC(C)=O)c2)cc1	-5.6%

A second format for part of the listing above:
CCSc1nc2c(c(=O)[nH]1)C(c1cccnc1)C(C(=O)OC)=C(C)N2 (stereo unspecified)
- HPGD block: -11.0%

CCCNC(=O)CS(=O)Cc1nc(-c2ccccc2C)oc1C (stereo unspecified)
- HPGD block: -5.1%

O=C1c2cc([N+](=O)[O-])ccc2-c2ccc3c4ccc5c6c(ccc(c7ccc1c2c73)c64)C(=O)c1cc([N+](=O)[O-])ccc1-5
- HPGD block: -15.3%

O=C(N1CCCCCC1)n1c(Cc2ccccc2)nc2ccccc21
- HPGD block: -15.6%

(list continues)
SMILES	HPGD block
O=C(NC(Cc1ccccc1)C(=O)O)/C(=C/c1ccc(F)cc1)NC(=O)c1ccccc1 (stereo unspecified)	-10.0%
Cc1ccc(NC(=O)c2cc(N3C(=O)C=CC3=O)ccc2Cl)cc1C	3.16µM*
CCOC(=O)CN1C(=O)N[C@@H](CCc2ccccc2)C(C(C)=O)=C1C	3.3%
CC(C)C(OC(=O)c1cccs1)C(=O)NC1CCCCC1 (stereo unspecified)	2.9%
CCC12CC3CC(C1)CC(C(=O)Nc1nn[nH]n1)(C3)C2	-9.4%
O=C(c1cc(-c2ccccc2)nc2ccccc12)N1N=C(C(F)F)CC1(O)C(F)F (stereo unspecified)	-20.0%
CC1=CC(C)(C)n2c(O)c(N=NC(N)=S)c3cccc1c32	-5.7%
CCOC(=O)C1CCN(S(=O)(=O)c2ccc(OCC)cc2)CC1	-7.0%
C/C(=N/NC(=O)c1ccco1)c1ccc(NC(=O)c2ccc(F)cc2)cc1	-9.4%
CCCCCCc1cc2cc(C(=O)Nc3ccccc3OC)c(=O)oc2cc1O	-4.8%
CN1CCCC(OC(=O)c2cc(Br)ccc2Cl)C1 (stereo unspecified)	-17.4%
CCOC(=O)c1ccc2ncc(C(=O)OCC)c(Nc3ccc(N4CCOCC4)cc3)c2c1	-12.8%
Nc1c(-c2cccc(Cl)c2)cnn1-c1cccc([N+](=O)[O-])c1	-24.4%
O=C1CC(N2CCC(O)(c3ccc(Br)cc3)CC2)C(=O)N1c1ccc(Cl)cc1 (stereo unspecified)	-1.1%
CC(CCC(=O)O)C1CCC2C3CC(O)[C@@H]4CC(O)CC[C@]4(C)C3CC[C@@]12C (stereo partly specified)	-7.0%
Cc1nn(-c2ccccc2)c(Cl)c1/C=C1/C(=N)N2N=C(C(C)C)SC2=NC1=O	22.4µM*
CCOC(=O)C1CCN(C(=O)CSCc2nc(-c3ccc(OCC)cc3)oc2C)CC1	-22.4%
CCOC(=O)c1sc(NC(=O)c2cc3c(C)nn(-c4ccccc4)c3s2)nc1C	-11.1%
CCN(CCNC(=O)C1CC(=O)N(CCc2ccccc2)C1)c1ccccc1 (stereo unspecified)	-1.8%
CN1CC(=O)N(CC(=O)NCc2ccc(F)cc2)c2ccccc2C1=O	-8.4%
O=C1OCCC1Sc1nnc(-c2cccs2)n1Cc1ccccc1 (stereo unspecified)	-10.4%
COc1cccc(NC(=O)c2ccco2)c1	0.4%
O=C(COC(=O)c1ccc(Oc2ccccc2)cc1)Nc1nnc(-c2ccccc2)o1	-17.1%
Cc1ccc(CCP(=O)(O)CN2CCCCC2)cn1	-2.0%
COc1cccc(C(=O)Nc2ccccc2C(=O)N2CCCC2)c1	-21.0%

Structural class: the compounds so far containing bromine (4)
SMILES	HPGD block
CN(C)CCCNC(=O)Cc1ccc(Br)cc1	-4.8%
CCOP(=O)(OCC)C(NCc1ccccc1)c1ccc(Br)cc1 (stereo unspecified)	-2.8%
CN1CCCC(OC(=O)c2cc(Br)ccc2Cl)C1 (stereo unspecified)	-17.4%
O=C1CC(N2CCC(O)(c3ccc(Br)cc3)CC2)C(=O)N1c1ccc(Cl)cc1 (stereo unspecified)	-1.1%

The listing continues:
SMILES	HPGD block
CCC(C)(C)c1nnc(NC(=O)c2ccc([N+](=O)[O-])cc2)s1	-1.4%
CC(=O)[C@@]1(O)CC[C@H]2[C@@H]3C[C@H](C)C4=CC(=O)CC[C@]4(C)[C@H]3CC[C@@]21C	-1.2%&-1.0%
CCOC(=O)N1CCN(C(=O)C2CCCN(S(=O)(=O)c3cc(C)ccc3OC)C2)CC1 (stereo unspecified)	3.8%
CCOC(=O)c1c(C)[nH]c(C(=O)COC(=O)CNC(=O)C2CCCCC2)c1C	-5.2%
CC(C)CCNC(=O)CCCOc1cc(=O)n(C)c2ccccc12	15.8µM*
O=C(Nc1ccccc1N1CCCCC1)c1ccc(N2C(=O)c3ccccc3C2=O)cc1	-18.3%
O=C(Nc1cc2c3c(c1)C1CCCC1CN3CC1CCCC21)c1ccccc1 (stereo unspecified)	?
CCc1cccc(C)c1NC(=O)CSc1ncn[nH]1	-4.2%
CCc1ccc(C(=O)COC(=O)c2cc([N+](=O)[O-])ccc2NCCO)cc1	-24.3%
CCC(C)(C(=O)NC1CCCCC1)N(C(=O)C1CCC(=O)N1)c1ccc(C)cc1 (stereo unspecified)	0.6%
CCOC(=O)c1c(O)[nH]c(=O)c(CC)c1C	-3.7%
CC1CCCCN1CCNC(=O)c1cc2c(-c3ccccc3F)nn(C)c2s1 (stereo unspecified)	?
CC(C)(C)NC(=O)NC(=O)COC(=O)CNC(=O)c1cccc(F)c1	-13.9%
Cc1noc(NS(=O)(=O)c2ccc(N)cc2)c1C	-2.1%&-5.6%&-6.0%&-4.3%&-5.7%
CC(=O)c1cccc(NC(=O)CN(c2cccc(F)c2)S(C)(=O)=O)c1	-2.4%
O=C(CCCN1C(=O)c2ccccc2C1=O)Nc1ccccn1	1.7%
Cc1ccc(NS(=O)(=O)c2cc(NC(=O)C(C)Oc3ccccc3)ccc2C)c(C)c1 (stereo unspecified)	-15.0%
COc1ccc(-c2cn3cc(C)ccc3n2)cc1Br	?
Cc1nn(C(=O)c2ccccc2)c2c1C(=O)CC(C)(C)C2	-24.1%
Cc1cccc(N2CCN(CC(=O)Nc3ccc(-n4cnnn4)cc3)CC2)c1C	-13.1%
CN(C)Cc1ccccc1-c1ccc2ncnc(N(C)Cc3ccco3)c2c1	-11.2%
CCC(C)[C@H](Nc1nc(-c2ccccc2)nc2c1oc1ccccc12)C(=O)O (stereo partly specified)	-6.1%
CN(C)c1oc(-c2ccccc2F)nc1C#N	?
Cc1ccc(S(=O)(=O)Nc2cccc(C(=O)Nc3cc(C)ccn3)c2)cc1	-5.4%
COC(=O)c1cc(-c2cccc(OC)c2)on1	-19.4%
